# Screening results deposited in PubChem by several laboratories.
# Bead autofluor: compound fluorescence in toxin protease inhibitor counterscreen; fluorescence intensity (test concentration not listed); compound autofluorescence counterscreen, microsphere flow cytometry; active compounds read high; 360,000 compounds, 3.1% hits; AID 624483;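 active = at least 3 SD above the mean of all compounds, about 16000 in these data; inconclusive = too few beads counted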;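 note: 100 nL of 1 mM stock went into each well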
# BJeLR lethal: MLPCN primary cell-based screen for lethality selective to Ras in HRASV12 cells; BJeLR (HRASV12) viability, CellTiter-Glo ATP luminescence, 48 h; reference of the scale not given here; inhibition, % (test concentration not listed); 300,000 compounds, 0.17% hits;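 active = replicate mean above 50%; inconclusive = above 50% but judged a plate artefact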;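 note: 50 nL library stock added to about 25 µL; numbers are from one replicate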
# ugtP null kill: growth inhibition of ugtP-null S. aureus, primary screen, RN4220 ugtP deletion, OD600. 16 h; some inactives read as strong as hits. growth inhibition, % (no concentration beside the values). 330,000 compounds, 0.54% hits. AID 1259309, 2017;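 active = z-score under -3 and OD600 up to 0.15 on both plates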;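 note: plate controls were untreated wells for no effect and antibiotic for full effect; wells of about 80 µL received 100 nL stock; the first replicate is given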
# PrP UTR inh: inhibition of PrP 5' UTR reporter expression; cell-based PrP 5' UTR mRNA reporter, plate reader; inhibition, % (concentration not given with the values); 340,000 compounds, 0.35% hits; AID 488862, 2010;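 active = every replicate at 50% or more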;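 note: 0 = median of the neutral control wells; tested in H4 reporter cells; numbers are from one replicate; inactives centre near -14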
# Sa RN4220 lethal: growth inhibition of S. aureus RN4220, primary screen, OD600. 16 h. 330,000 compounds, 0.33% hits. inhibition, % (test concentration not listed). AID 1259311, 2017;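 active = z-score of -3 or lower and OD600 up to 0.18 on both plates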;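 note: plate controls were untreated cells for no effect and reference antibiotic for full effect; stock transfer was 100 nL into about 80 µL; one replicate is shown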
# Mtb hypoxia inh: PubChem AID 1159583. M. tuberculosis hypoxia-regulated fluorescent reporter, fluorescence. fluorescence inhibition, % (no concentration beside the values). 300,000 compounds, 0.1% hits;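 active = 35 to 45% if threefold the growth effect, above 45% if 1.5-fold the growth effect; inactive = the rest, general growth blockers included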;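 note: wells of about 50 µL received 100 nL stock; 0% = vehicle wells and 100% = reference inhibitor wells; whole bacteria with a GFP reporter of the hypoxia response; strong numbers were not always called active; many hits fall short of the cut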
# Mtb hypoxia inh growth: further read-out of Mtb hypoxia inh, marked with its call; growth inhibition, %; measured here: M. tuberculosis growth (absorbance);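 0% = vehicle and 100% = reference antibiotic; read after six days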
# Numbers without * were called inactive; ? = inconclusive; · = no result given; & = joins results of further samples.
SMILES,Bead autofluor,BJeLR lethal,ugtP null kill,PrP UTR inh,Sa RN4220 lethal,Mtb hypoxia inh,Mtb hypoxia inh growth
S=C(NCc1cccnc1)Nc1ccc(Cl)c(Cl)c1,7064,6.9,-4.2,-17.1,-4.6,5.0,1.0
C=Cc1ccc(CSc2cc(C)nc3nc(C)nn23)cc1,7745,2.8,1.3,-13.5,5.5,10.1,8.9
Cc1ccccc1NC(=O)COC(=O)c1ccc(CSc2ccc(Cl)cc2)cc1,2157,-8.8,2.0,-21.5,4.8,-6.4,-5.8
COc1cccc(NC(=O)CN2CCN(S(=O)(=O)c3ccc(F)cc3)CC2)c1,6855,1.0,7.2,-11.0,2.2,14.4,3.6
Cc1ccc(S(=O)(=O)N2CCOCC2)cc1C(=O)OCC(=O)c1ccc[nH]1,3574,·,3.2,-5.8,4.6,8.8,6.2
CC1CCCC(C)N1C(=O)c1ccc(S(=O)(=O)N2CCCC2)cc1 (configuration not stated),9131,·,23.6,-22.1,3.6,24.1,43.8
Oc1ccc(Br)cc1-c1cc(-c2ccccc2F)[nH]n1,15717,-0.3,-11.4,-28.1,-8.8,2.0,0.5
COCCOC(=O)C1=C(N)Oc2c(c(=O)oc3ccccc23)C1c1ccncc1 (configuration not stated),8817,3.5,7.7,-33.5,2.7,8.1,0.8
COc1ccccc1CNS(=O)(=O)c1ccc2c(c1)oc(=O)n2C,5471,1.7,-5.9,-18.3,-10.3,5.0,2.8
COc1cc(C2C(C(=O)C(C)(C)C)=C(O)C(=O)N2Cc2ccccc2)ccc1O (configuration not stated),3263,-4.5,8.3,-9.5,5.0,-5.8,-1.0
CCCc1cc(C(=O)Nc2cccnc2Cl)no1,4822,-4.0,3.0,-52.5,0.8,12.5,3.6
Cc1ccc(C(=O)NCC(=O)OC(C)C(=O)NCCC2=CCCCC2)cc1C (configuration not stated),1961,1.5,-1.9,-26.8,2.3,10.3,2.7
NC(=O)c1ccccc1NC(=O)c1ccccc1S(=O)(=O)c1ccccc1[N+](=O)[O-],2369,7.8,5.1,-28.4,2.4,-4.4,7.9
COc1ccc(OC)c(NC(=S)Nc2ccccc2)c1,4157,-1.1,14.2,-18.9,-3.7,5.6,9.9
CCCNC(=O)NC(=O)COC(=O)c1ccc(OC)c(S(=O)(=O)N2CCCc3ccccc32)c1,3635,-4.1,22.1,-4.7,6.4,13.9,8.7
S=c1[nH]c(-c2ccccc2)cn1N=Cc1cccnc1,·,·,8.5,·,3.8,3.8,12.1
CCOCc1nnc(NC(=O)C2CC(=O)N(CCc3ccc(F)cc3)C2)s1 (configuration not stated),3821,-9.3,·,-21.3,·,·,·
CCc1nc(C)cn1S(=O)(=O)c1cc(OC)c(C)cc1C,2525,-2.0,-12.6,-8.5,-16.8,7.1,4.3
COc1ccccc1CNC(=O)CNC(=O)[C@@H]1Cc2ccccc2CN1,5338,-0.4,10.6,-14.6,6.8,14.4,-2.2
COc1ccc(OC)c(S(=O)(=O)N2CCC(C(=O)N(C)Cc3ccccc3)CC2)c1,5150,-11.0,-1.9,-73.2,0.3,9.5,1.2
CC(C)CCn1c(CN2CCN(c3cccc(Cl)c3)CC2)nc2c1c(=O)n(C)c(=O)n2C,6576,9.6,-2.6,-2.4,-4.5,5.6,9.9
COc1cc(C)c(Cl)cc1S(=O)(=O)NCc1ccco1,4314,-32.6,7.8,-7.4,2.1,·,·
O=C(CCCn1c(=S)[nH]c2cc3c(cc2c1=O)OCO3)NCCc1ccccc1Cl,5220,-1.7,9.2,-19.3,2.4,10.7,9.0
O=C(NCc1cccnc1)/C(=C\c1ccc(-c2ccc(Br)cc2)o1)S(=O)(=O)c1ccccc1,2017,6.0,·,-39.8,·,·,·
Cc1ccc2c(c1)C(c1ccc([N+](=O)[O-])cc1)=NNC(c1ccc(Br)cc1)=N2,2552,4.8,5.9,-15.0,-4.7,6.3,1.9
COc1ccccc1C(=O)NCCNc1nc2cc(C)cc(C)c2cc1C#N,3954,-7.3,0.9,-17.0,5.2,-0.4,0.5
O=C(Nc1ccccc1)OC1C2CCC1C(N1CCCCC1)CC2 (configuration not stated),3856,0.0,11.4,-13.1,18.3,7.0,1.9
O=C(NCc1ccco1)c1ccc(Cl)nc1,3371,-0.8,-8.8,-17.8,1.4,6.3,14.5
O=c1[nH]c2ccccc2cc1-c1nnn(-c2ccc(Cl)c(Cl)c2)n1,3539,7.3,1.2,5.0,5.3,4.1,6.3
COc1ccc(Cl)cc1Nc1nc(C)nc2c1oc1ccccc12,3974,1.5,24.7,-13.1,33.9,-21.3,-13.0
CC1CN(C(=O)Nc2ccc3snnc3c2)c2ccccc21 (configuration not stated),5531,-0.4,7.4,-11.7,-0.6,·,·
O=C(NN=Cc1cn[nH]c1-c1ccccc1)c1cccnc1,·,·,-1.6,·,2.9,3.2,7.6
CCC1CCCCN1CCCNC(=O)Cn1nc(C)n2nc(-c3ccccc3)cc2c1=O (configuration not stated),5307,-1.4,5.3,-7.8,3.3,-4.1,-2.2
NC(C(=O)NC1C(=O)N2C(C(=O)O)=C(Cl)CSC12)c1ccccc1 (configuration not stated),·,·,100.2*,·,100.5*,7.9,10.9
C=C(C)C(=O)N1CC2(CC(c3cccc(NC(=O)CC(c4ccccc4)c4ccccc4)c3)=NO2)CC1C(N)=O (configuration not stated),·,·,6.2,·,3.9,-6.5,-3.4
O=C(CCNC(=O)c1ccccc1)NCC1CCCCC1,4291,10.8,6.4,-54.7,16.4,6.6,11.3
CC(=O)c1ccc(OC(=O)CCNC(=O)c2ccccc2)cc1,?,·,-1.7,-3.3,2.8,6.0,3.9
CCOc1c2ccc(C(=O)NCc3cc(C(F)(F)F)cc(C(F)(F)F)c3)cc2nn1CCOC,2867,6.4,-1.0,-26.5,-5.1,5.8,9.9
O=C(CCc1nc2ccccc2[nH]c1=O)OCc1ccc(S(=O)(=O)N2CCOCC2)cc1,8893,-1.6,-2.5,-9.1,0.0,2.2,-2.0
O=C(C1CCCO1)N1CCN(S(=O)(=O)c2ccc(F)cc2)CC1 (configuration not stated),4157,7.8,15.9,-2.8,6.3,2.1,-2.0
O=C(NC1CCCCCC1)c1c2c(nc3ccccc13)CCN(Cc1ccccc1)C2,4731,15.4,-1.0,-28.8,-2.0,5.9,4.7
CC(C)(C)c1cc(=O)[nH]c(SCc2ccccc2Cl)n1,4141,·,-19.6,-10.5,13.1,-1.6,1.5
CCOC(=O)N/N=C/c1cn(Cc2ccc(F)cc2)c2ccccc12,4454,-5.1,·,8.4,·,·,·
CCCCNC(=O)c1cn(CC)c2ccc(S(=O)(=O)N3CCCC3)cc2c1=O,4467,12.3,3.0,2.2,-0.7,-2.9,-1.3
COc1ccc(C(=O)NCC(=O)N2CC=C(c3ccccc3)CC2)cc1OC,2683,·,-0.2,-40.8,1.5,10.4,4.8
CCn1c(NCc2cccc(OC)c2OC)nc2ccccc21,4946,2.6,-2.6,-25.5,6.1,6.0,8.9
O=C(NC1CC1)C1=C[C@H](C2CCCCC2)C[C@H](OCCCCO)O1,2946,11.3,·,-25.0,·,·,·
CCOC(=O)C1(Cc2cccc(OC)c2)CCN(C(C)CC(C)(C)O)CC1 (configuration not stated),4789,·,-6.1,-29.9,-1.6,4.0,7.2
CCOCCCNc1ncnc2c1[nH]c1ccccc12,3493,4.3,-5.4,-12.3,-4.3,17.8,8.9
OCC1OC(O)C(O)C(O)C1O (configuration not stated),·,·,-2.2&-6.4,·,10.8&3.3,7.5&4.2,2.6&-0.6
# Other results follow.
SMILES,Bead autofluor,BJeLR lethal,ugtP null kill,PrP UTR inh,Sa RN4220 lethal,Mtb hypoxia inh,Mtb hypoxia inh growth
N/C(=N\c1nc2c(c(=O)[nH]1)CCC2)Nc1cccc(Cl)c1,2003,15.3,·,-44.2,·,·,·
COc1ccc(NC(=O)CN(c2ccccc2F)S(=O)(=O)c2ccc(C)cc2)cc1,2780,1.8,6.4,-17.9,2.7,21.9,-1.1
O=C(O)COCC(=O)N1CCN(C(c2ccccc2)c2ccccc2)CC1,4194,-7.2,1.7,-12.2,1.6,20.0,15.9
CCOC(=O)c1cc(-c2ccc(C)cc2)nc2nc(SC)[nH]c(=O)c12,2007,-22.0,-1.0,-10.0,4.7,-3.0,-1.7
O=C1c2ccccc2C(O)(c2ccccc2)N1CCc1ccccc1 (configuration not stated),3752,-10.8,0.2,-31.5,7.3,3.9,-4.0
CCN1CCN(C(=O)/C=C/c2ccc([N+](=O)[O-])cc2)CC1,1952,5.5,-4.3,-13.1,-4.4,-6.0,1.4
CCC(=O)NCCNc1nc2cc(C)c(C)cc2cc1C#N,3860,-1.8,-7.5,-7.3,2.7,3.3,9.4
CCn1c(-c2cccnc2)n[nH]c1=S,10609,-0.6,8.4,-19.1,3.7,6.0,2.7
COc1cc(C=NNC(=O)c2cc(-c3cccc(Br)c3)nc3ccccc23)cc(OC)c1O,·,·,-5.2,·,-5.4,14.6,13.4
CCC1CCC(c2nnc(-c3ccc([N+](=O)[O-])cc3)o2)CC1 (configuration not stated),2019,-8.3,0.7,-10.9,-0.2,·,·
CN(C(=O)CSc1nnc(-c2ccccc2F)o1)c1ccccc1,6549,2.6,8.5,-37.4,3.7,3.6,10.8
CN(Cc1ccccc1)c1nc(N)c([N+](=O)[O-])c(NCc2ccccc2)n1,10176,3.3,13.9,-15.8,-6.0,4.7,-6.7
Cc1ccc(NS(=O)(=O)c2ccc3c(c2)NC(=O)C(C)C(=O)N3)c(Br)c1 (configuration not stated),5859,-1.2,-7.3,-7.6,-9.6,1.3,5.7
COc1ccc(C)cc1N(C(=O)COc1cccc(F)c1)c1nc2ccccc2s1,2437,2.2,20.1,-6.7,-5.4,-5.7,-2.1
OCc1ccc(-c2nn(Cc3ccccc3)c3ccccc23)o1,4113,-8.2,-5.6,12.1,11.5,6.9,2.6
CC(C)N1CSC(=S)N(Cc2ccccc2)C1,3383,3.5,4.9,16.7,14.4,5.6,5.0
COc1ccc(-c2csc(NC(=O)c3cccs3)c2C(=O)O)cc1OC,4243,0.0,5.5,-10.9,0.3,-8.7,8.1
O=C(c1ccc(Cl)cc1)c1ccc(CN2C(=O)c3ccccc3C2=O)o1,4063,-4.6,-1.0,-5.2,11.6,5.5,5.1
COc1ccc(C2C=CCN(C(=O)CC(C)C)CC(=O)N2Cc2ccc(F)cc2)cc1 (configuration not stated),·,·,-7.8,·,6.2,-2.4,1.3
Cc1ccccc1C(=O)c1cccn1CC(=O)NCCCc1ccccc1,·,-0.3,8.6,-7.6,-2.0,3.7,-1.8
CCCC12CN3CCN(CC(C3)C1=NNC(=O)c1ccncc1)C2,·,·,0.0,·,3.8,·,·
CCOC(=O)c1ccc(NC(=O)CC2OCCN(CC)C2=O)cc1 (configuration not stated),10285,-9.2,4.9,-27.1,6.9,3.2,9.4
CSc1nc(SCC(N)=O)c2c3c(sc2n1)CN(C)CC3,2668,9.4,·,-14.3,·,·,·
CC(=O)c1ccc(OCc2cc(C(=O)NC3CCCCC3)no2)cc1,4715,-10.6,5.6,-42.3,1.6,-3.0,-2.9
CC1=C(C(=O)Nc2ccccn2)C(c2ccc(Cl)cc2Cl)NC(=S)N1 (configuration not stated),2442,-5.1,6.8,-27.4,4.6,-1.0,5.8
O=C(NCc1ccncc1)c1cncc(Br)c1,3157,8.4,6.9,-14.6,6.3,15.7,7.4

# Compound profiles, as listed above. Screens in order: Bead autofluor, BJeLR lethal, ugtP null kill, PrP UTR inh, Sa RN4220 lethal, Mtb hypoxia inh, Mtb hypoxia inh growth
# CCCC12CN3CCN(CC(C3)C1=NNC(=O)c1ccncc1)C2 is listed with ·, ·, 0.0, ·, 3.8, ·, ·
# CC(=O)c1ccc(OCc2cc(C(=O)NC3CCCCC3)no2)cc1 is listed with 4715, -10.6, 5.6, -42.3, 1.6, -3.0, -2.9
# CSc1nc(SCC(N)=O)c2c3c(sc2n1)CN(C)CC3 is listed with 2668, 9.4, ·, -14.3, ·, ·, ·
# CCOC(=O)c1ccc(NC(=O)CC2OCCN(CC)C2=O)cc1 (configuration not stated) is listed with 10285, -9.2, 4.9, -27.1, 6.9, 3.2, 9.4
# CC1=C(C(=O)Nc2ccccn2)C(c2ccc(Cl)cc2Cl)NC(=S)N1 (configuration not stated) is listed with 2442, -5.1, 6.8, -27.4, 4.6, -1.0, 5.8

# Compounds as they come; any-hit rate near 4%.
